FGF22 binding = binders of human FGF22 protein, primary screen, FGF22 synaptogenesis inhibitor project, biophysical, thermal shift, single point; recombinant FGF22 thermal shift, SYPRO orange fluorescence; percent of sucrose octasulfate shift, DMSO zero; AID 651658, 2012; hit rate 1.5% among 340,000; calls only at 9.99 µM;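 active = melting point raised past a set limit in the mean and every replicate; three in four hits are not shown here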
Target sequence (Q9HCT0 whole entry, looked up): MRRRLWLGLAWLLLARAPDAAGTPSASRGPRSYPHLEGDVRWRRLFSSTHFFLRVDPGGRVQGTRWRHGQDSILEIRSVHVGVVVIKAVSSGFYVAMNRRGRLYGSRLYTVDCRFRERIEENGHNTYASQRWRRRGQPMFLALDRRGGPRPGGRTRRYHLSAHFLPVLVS
AF4-AF9 inh = inhibitors of AF4 peptide binding to AF9, primary screen, biochemical, AlphaScreen, biotin-AF4 peptide, FLAG-AF9, single point; Protein AF-9 (Homo sapiens), P42568; inhibition, % at 10 µM; hit rate 0.47% among 350,000;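 active = every replicate reaching a set inhibition limit, whatever the replicate mean, cut at about 25% in these data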;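 also: 0% = plate neutral control median and 100% = total signal loss; the record names both 10 and 1 µM as test concentration; the first replicate is given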
Target sequence (P42568 whole entry, looked up): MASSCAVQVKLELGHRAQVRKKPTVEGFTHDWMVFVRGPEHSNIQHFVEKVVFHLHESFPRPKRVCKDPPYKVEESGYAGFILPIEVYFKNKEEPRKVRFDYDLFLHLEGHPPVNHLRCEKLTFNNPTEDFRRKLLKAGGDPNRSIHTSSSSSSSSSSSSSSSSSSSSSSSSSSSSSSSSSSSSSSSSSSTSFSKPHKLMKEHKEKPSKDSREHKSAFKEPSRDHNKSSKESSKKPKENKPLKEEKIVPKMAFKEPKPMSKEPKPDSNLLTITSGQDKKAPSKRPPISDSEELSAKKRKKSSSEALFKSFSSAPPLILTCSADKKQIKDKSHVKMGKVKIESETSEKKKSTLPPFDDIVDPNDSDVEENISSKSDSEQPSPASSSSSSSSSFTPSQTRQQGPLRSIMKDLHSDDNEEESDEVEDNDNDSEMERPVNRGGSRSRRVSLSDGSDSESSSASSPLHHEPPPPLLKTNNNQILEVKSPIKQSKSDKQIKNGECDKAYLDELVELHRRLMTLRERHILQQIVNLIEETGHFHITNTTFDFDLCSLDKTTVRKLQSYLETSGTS
* marks the source's active call; other numbers are inactive results; i = inactive. A portion of the library; count on the stated rates, not on these rows.

Start of the listing, in advance, 4 compounds:
AF4-AF9 inh | FGF22 binding | canonical_smiles
-0.7 | i | C[C@@H]1CCCCO[C@@H](CN(C)Cc2ccc(Cl)c(Cl)c2)[C@@H](C)CN([C@H](C)CO)C(=O)c2cc(NC(=O)Nc3ccc(C(F)(F)F)cc3)ccc2O1
-0.1 | i | COc1cccc(S(=O)(=O)N2C[C@@H](O)COC[C@@H]3O[C@@H](CC(=O)N4CCCCC4)CC[C@H]32)c1
-0.2 | i | C[C@@H]1CN([C@@H](C)CO)C(=O)c2cc(NS(=O)(=O)c3ccccc3)ccc2O[C@@H]1CN(C)C(=O)Nc1cccc2ccccc12
-1.9 | i | CCCC(=O)Nc1ccc2c(c1)C(=O)N(C)[C@H]1CC[C@@H](CC(=O)NC3CCCC3)O[C@@H]1CO2

The listing, from the first entry:
AF4-AF9 inh | FGF22 binding | canonical_smiles
-0.7 | i | C[C@@H]1CCCCO[C@@H](CN(C)Cc2ccc(Cl)c(Cl)c2)[C@@H](C)CN([C@H](C)CO)C(=O)c2cc(NC(=O)Nc3ccc(C(F)(F)F)cc3)ccc2O1
-0.1 | i | COc1cccc(S(=O)(=O)N2C[C@@H](O)COC[C@@H]3O[C@@H](CC(=O)N4CCCCC4)CC[C@H]32)c1
-0.2 | i | C[C@@H]1CN([C@@H](C)CO)C(=O)c2cc(NS(=O)(=O)c3ccccc3)ccc2O[C@@H]1CN(C)C(=O)Nc1cccc2ccccc12
-1.9 | i | CCCC(=O)Nc1ccc2c(c1)C(=O)N(C)[C@H]1CC[C@@H](CC(=O)NC3CCCC3)O[C@@H]1CO2
-0.3 | i | Cc1cccc(-c2ccc([C@@H]3[C@@H](CO)N4CCCCN(S(=O)(=O)c5ccccc5C)C[C@@H]34)cc2)c1
-0.4 | i | COc1ccc(C(=O)N2C[C@@H]3[C@H](c4ccccc42)[C@H](CO)N3Cc2ccccc2Cl)cc1
-1.2 | i | COc1ccc(C(=O)N2C[C@H]3[C@@H](c4ccccc42)[C@@H](CO)N3C(=O)NC(C)C)cc1
2.8 | i | C[C@H]1CN([C@@H](C)CO)C(=O)c2cccc(NC(=O)Nc3ccccc3)c2O[C@H]1CN(C)C(=O)Nc1cccc2ccccc12
-2.4 | i | COCC(=O)N(C)C[C@H]1Oc2ncc(C#Cc3ccc(OC)cc3)cc2C(=O)N([C@H](C)CO)C[C@H]1C
3.1 | i | C[C@@H]1CN([C@H](C)CO)C(=O)c2cc(NC(=O)Nc3ccc4c(c3)OCO4)ccc2O[C@@H]1CN(C)C(=O)NC1CCCCC1
-2.4 | i | C/C=C/c1ccc2c(c1)O[C@@H](CN(C)C(=O)c1ccncc1)[C@H](C)CN([C@H](C)CO)S2(=O)=O
-1.8 | i | C[C@@H]1CN([C@H](C)CO)C(=O)Cc2cc(NS(=O)(=O)c3ccc(Cl)cc3)ccc2O[C@@H]1CN(C)S(=O)(=O)c1cn(C)cn1
-0.6 | i | CO[C@@H]1CN(C)C(=O)c2ccc(NC(=O)c3cc(C)on3)cc2OC[C@@H](C)N(C(=O)C2CCC2)C[C@H]1C
-2.4 | i | Cc1ccc(S(=O)(=O)N(C)C[C@H]2OCCCC[C@H](C)Oc3ccc(NC(=O)Nc4ccc(F)cc4)cc3C(=O)N([C@H](C)CO)C[C@H]2C)cc1
1.2 | i | C[C@H]1CCCCO[C@H](CN(C)S(=O)(=O)c2ccccc2)[C@@H](C)CN([C@@H](C)CO)C(=O)c2cc(NC(=O)NC3CCCCC3)ccc2O1
0.2 | i | CN(C)CC(=O)N[C@@H]1CC[C@@H](CCNC(=O)C2CCCCC2)O[C@@H]1CO
-2.0 | i | CC(=O)N(C)C[C@H]1Oc2cc(C#C[C@H](C)O)ccc2S(=O)(=O)N([C@@H](C)CO)C[C@@H]1C
0.9 | i | C[C@H]1CN([C@@H](C)CO)C(=O)c2cccc(NC(=O)C3CC3)c2O[C@H]1CN(C)C(=O)Nc1cccc2ccccc12
2.3 | i | CO[C@@H]1CN(C)C(=O)c2ccc(NC(=O)Nc3ccccc3F)cc2OC[C@@H](C)N(C(C)=O)C[C@@H]1C
1.8 | i | COc1ccc(-c2ccc3n(c2=O)C[C@H]2[C@H](CO)[C@@H](C(=O)N(C)C)[C@@H]3N2Cc2cccnc2)cc1
-0.2 | i | CN1[C@@H]2Cn3c(ccc(C4=CCCCC4)c3=O)[C@H]1[C@@H](C(=O)N1CCCCC1)[C@@H]2CO
-0.2 | i | CN(C)CC(=O)Nc1ccc2c(c1)[C@H]1C[C@H](CC(=O)NC3CCCCC3)O[C@@H](CO)[C@H]1O2
-1.4 | i | CC(=O)N(C)C[C@@H]1Oc2cc(-c3ccccc3C)ccc2S(=O)(=O)N([C@H](C)CO)C[C@H]1C
2.7 | i | CO[C@@H]1CC[C@H]2CCN(C)C(=O)[C@@H](C)CN(C)C(=O)c3cccc(C#N)c3OC[C@@H]1O2
-0.4 | i | COc1ccc(C#Cc2cnc3c(c2)C(=O)N([C@H](C)CO)C[C@H](C)[C@H](CN(C)C(=O)Nc2cccc4ccccc24)O3)cc1OC

One compound at a time (already shown). Order of screens: AF4-AF9 inh	FGF22 binding
`C[C@@H]1CN([C@H](C)CO)C(=O)c2cc(NC(=O)Nc3ccc4c(c3)OCO4)ccc2O[C@@H]1CN(C)C(=O)NC1CCCCC1` reads 3.1	i
`CO[C@@H]1CN(C)C(=O)c2ccc(NC(=O)Nc3ccccc3F)cc2OC[C@@H](C)N(C(C)=O)C[C@@H]1C` reads 2.3	i
`C[C@H]1CN([C@@H](C)CO)C(=O)c2cccc(NC(=O)Nc3ccccc3)c2O[C@H]1CN(C)C(=O)Nc1cccc2ccccc12` reads 2.8	i
`Cc1cccc(-c2ccc([C@@H]3[C@@H](CO)N4CCCCN(S(=O)(=O)c5ccccc5C)C[C@@H]34)cc2)c1` reads -0.3	i
`CCCC(=O)Nc1ccc2c(c1)C(=O)N(C)[C@H]1CC[C@@H](CC(=O)NC3CCCC3)O[C@@H]1CO2` reads -1.9	i

(list continues)
AF4-AF9 inh | FGF22 binding | canonical_smiles
-1.3 | i | COCC#Cc1ccc2c(c1)O[C@H](CN(C)C(=O)C1CCCCC1)[C@H](C)CN([C@@H](C)CO)S2(=O)=O
2.5 | i | CO[C@@H]1CN(C)C(=O)c2ccc(NC(=O)Nc3cc(F)ccc3F)cc2OC[C@@H](C)N(C)C[C@@H]1C
2.5 | i | C[C@H](CO)N1C[C@H](C)[C@@H](CN(C)C(=O)Nc2ccc(C(F)(F)F)cc2)Oc2ccc(NC(=O)Nc3cccc4ccccc34)cc2CC1=O
2.2 | i | C[C@H](CO)N1C[C@H](C)[C@H](CN(C)Cc2ccccc2C(=O)O)Oc2cc(-c3ccc(F)cc3)ccc2S1(=O)=O
3.1 | i | COc1ccc(NC(=O)N[C@H]2CC[C@@H](CCNS(=O)(=O)c3cccc(Cl)c3)O[C@@H]2CO)cc1
3.2 | i | Cc1ccc(S(=O)(=O)NCC[C@H]2CC[C@H](NC(=O)CCN3CCCCC3)[C@@H](CO)O2)cc1
-1.4 | i | O=C(Nc1ccccc1)N1CCCCN2[C@H](C1)[C@@H](c1ccc(-c3ccccc3F)cc1)[C@@H]2CO
1.8 | i | COc1ccccc1-c1ccc2c(c1)O[C@H](CN(C)C(=O)c1ccccc1)[C@H](C)CN([C@H](C)CO)S2(=O)=O
-3.3 | i | CN1C(=O)c2cc(NC(=O)Cc3cccs3)ccc2OC[C@@H]2O[C@H](CC(=O)NCC3CC3)CC[C@H]21
-1.4 | i | Cc1ccc(S(=O)(=O)NCC[C@@H]2CC[C@@H](NC(=O)c3cccc(F)c3)[C@@H](CO)O2)cc1
-2.5 | i | O=C(C[C@H]1C=C[C@@H](NC(=O)Nc2cc(F)ccc2F)[C@H](CO)O1)NCc1ccc2c(c1)OCO2
3.6 | i | COc1ccc(S(=O)(=O)Nc2ccc3c(c2)C(=O)N([C@H](C)CO)C[C@@H](C)[C@H](CN(C)C(=O)Nc2ccc(C(F)(F)F)cc2)OCCCC[C@H](C)O3)cc1
-1.8 | i | CCCC(=O)Nc1ccc2c(c1)C(=O)N(C)C[C@@H](OC)[C@@H](C)CN(Cc1nccs1)[C@H](C)CO2
5.7 | i | COc1ccc(NC(=O)N(C)C[C@@H]2Oc3cc(C#CCN(C)C)ccc3S(=O)(=O)N([C@@H](C)CO)C[C@@H]2C)cc1
-0.9 | i | C[C@@H]1CN([C@@H](C)CO)C(=O)Cc2cc(NC(=O)c3ccncc3)ccc2O[C@H]1CN(C)C(=O)NC1CCCCC1
0.3 | i | COc1ccc(NC(=O)N(C)C[C@@H]2OCCCC[C@H](C)Oc3ccc(NC(=O)C4CCCCC4)cc3C(=O)N([C@H](C)CO)C[C@@H]2C)cc1
-1.0 | i | C[C@@H]1CN([C@@H](C)CO)C(=O)Cc2cc(NC(=O)Nc3cccc4ccccc34)ccc2O[C@@H]1CN(C)Cc1ccc(Oc2ccccc2)cc1
1.0 | i | CCCC#Cc1cnc2c(c1)C(=O)N([C@H](C)CO)C[C@H](C)[C@@H](CN(C)C(=O)c1ccc3c(c1)OCO3)O2
0.5 | i | O=C(C[C@@H]1C[C@H]2c3cc(NC(=O)CC4CC4)ccc3O[C@H]2[C@H](CO)O1)NCc1ccc2c(c1)OCO2
-5.6 | i | O=C(Cc1ccccc1)OC(COCc1ccccc1)C(=O)NCc1ccccc1 (stereo not given)
-1.4 | i | CC(C)NC(=O)N1[C@H](CO)[C@@H](c2ccc(C#CC3CC3)cc2)[C@@H]1C#N
-3.1 | i | C[C@H](CO)N1C[C@H](C)[C@@H](CN(C)S(=O)(=O)c2ccccc2F)OCc2ccccc2-c2c(n(C)c3ccccc23)C1=O
9.4 | i | C[C@@H]1CCCCO[C@@H](CN(C)C(=O)C2CCCCC2)[C@@H](C)CN([C@@H](C)CO)C(=O)c2cc(NC(=O)Nc3ccc4c(c3)OCO4)ccc2O1
-1.9 | i | O=C(C[C@@H]1C=C[C@@H](NC(=O)NC2CCCCC2)[C@H](CO)O1)NCc1ccccc1
-2.0 | i | COc1ccc(S(=O)(=O)Nc2ccc3c(c2)C(=O)N([C@@H](C)CO)C[C@H](C)[C@H](CN(C)Cc2ccc4c(c2)OCO4)O3)cc1

Next part:
AF4-AF9 inh | FGF22 binding | canonical_smiles
-1.0 | i | COc1ccc2c3c([nH]c2c1)[C@H](CO)N(CC1CC1)CC31CCN(C(=O)c2ccc(F)cc2)CC1
-2.2 | i | C[C@@H]1CN([C@@H](C)CO)C(=O)Cc2cc(NC(=O)NC3CCCCC3)ccc2O[C@H]1CN(C)C(=O)NC1CCCCC1
-2.1 | i | O=C(CC1CC1)Nc1ccc2c(c1)[C@@H]1C[C@H](CC(=O)NC3CCCCC3)O[C@H](CO)[C@@H]1O2
-2.1 | i | C[C@H](CO)N1C[C@H](C)[C@H](CN(C)C(=O)C2CC2)Oc2cc(C#Cc3ccccn3)ccc2S1(=O)=O
-0.9 | i | CCC(=O)N(C)C[C@@H]1Oc2ncc(C3=CCCC3)cc2C(=O)N([C@H](C)CO)C[C@@H]1C
-0.2 | i | COC(=O)c1cc2c(c3c4cc(F)ccc4n(S(=O)(=O)c4ccc(C)cc4)c13)C(=O)N(Cc1ccccc1)C2
-1.1 | i | C[C@H]1CN([C@@H](C)CO)C(=O)Cc2cc(NS(=O)(=O)c3cccs3)ccc2O[C@H]1CN(C)Cc1ccc2c(c1)OCO2
-23 | i | Cc1ccc(S(=O)(=O)N[C@@H]2CC[C@H](CC(=O)NCCCN(C)C)O[C@H]2CO)cc1
5.4 | i | O=C(C1CC1)N1CCCCN2[C@H](C1)[C@H](c1ccc(-c3cccc(F)c3)cc1)[C@@H]2CO
-3.7 | i | COc1ccc(NC(=O)N(C)C[C@H]2OCCCC[C@H](C)Oc3ccc(NS(C)(=O)=O)cc3C(=O)N([C@@H](C)CO)C[C@@H]2C)cc1
-1.7 | i | CO[C@H]1CN(C)C(=O)c2ccc(NC(=O)Nc3ccccc3)cc2OC[C@H](C)N(C(=O)Nc2c(C)noc2C)C[C@@H]1C
-1.7 | i | C[C@@H]1CCCCO[C@@H](CN(C)Cc2ccc(Cl)c(Cl)c2)[C@H](C)CN([C@@H](C)CO)C(=O)c2cc(NC(=O)Cc3ccccc3)ccc2O1
0.3 | i | COc1ccc(NC(=O)Nc2cccc3c2O[C@@H](CN(C)Cc2ccncc2)[C@H](C)CN([C@@H](C)CO)C3=O)cc1
-1.5 | i | COc1ccc(NC(=O)N2C[C@@H](O)COC[C@H]3O[C@@H](CC(=O)N4CCOCC4)CC[C@@H]32)cc1
-1.7 | i | Cc1ccc(S(=O)(=O)N[C@H]2CC[C@H](CCNC(=O)c3ccc4c(c3)OCO4)O[C@@H]2CO)cc1
-3.9 | i | CN(C)C(=O)C[C@@H]1CC[C@H]2[C@@H](COC[C@@H](O)CN2S(=O)(=O)c2ccccc2)O1
1.1 | i | C[C@@H]1CN([C@H](C)CO)C(=O)c2cccc(NS(=O)(=O)c3ccc(Cl)cc3)c2O[C@@H]1CN(C)S(=O)(=O)c1ccccc1
3.2 | i | C[C@@H]1CN([C@@H](C)CO)C(=O)c2cc(N(C)C)ccc2O[C@@H](C)CCCCO[C@@H]1CN(C)Cc1ccncc1
3.3 | i | CC(C)(C)[S@](=O)N1Cc2cc(C(=O)NCCN3CCCCC3)nc(-c3cccc(-c4cccc(C#N)c4)c3)c2[C@@H]1CCO
-0.7 | i | CC1C=NC(S(=O)(=O)N2CC[C@@H]3[C@H](CO)N(C)c4ccc(-c5cccc(F)c5)cc4[C@@H]32)=N1 (stereo not given in full)
4.1 | i | COCC(=O)N(C)C[C@@H]1Oc2cc(C#Cc3ccccc3)ccc2S(=O)(=O)N([C@H](C)CO)C[C@H]1C
25* | i | CCCN(C)C[C@@H]1OCCCC[C@@H](C)Oc2ccc(NC(=O)Nc3ccc4c(c3)OCO4)cc2C(=O)N([C@H](C)CO)C[C@H]1C
-0.1 | i | CO[C@H]1CN(C)C(=O)c2ccc(NC(=O)C3CC3)cc2OC[C@@H](C)N(Cc2nccs2)C[C@@H]1C
-3.8 | i | C[C@@H]1CCCCO[C@H](CN(C)Cc2ccncc2)[C@H](C)CN([C@H](C)CO)C(=O)c2cc(NC(=O)c3ccncc3)ccc2O1
